FGF22 binding: binders of recombinant human FGF22 by thermal shift. hit rate 1.5% among 340,000. calls only at 9.99 µM. Q9HCT0. SYPRO orange fluorescence; percent of sucrose octasulfate shift, DMSO zero. AID 651658;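 active means melting point raised past a set limit in the mean and every replicate; inconclusive means no clear call; three in four hits are not shown here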
Target sequence (Q9HCT0 whole entry, looked up): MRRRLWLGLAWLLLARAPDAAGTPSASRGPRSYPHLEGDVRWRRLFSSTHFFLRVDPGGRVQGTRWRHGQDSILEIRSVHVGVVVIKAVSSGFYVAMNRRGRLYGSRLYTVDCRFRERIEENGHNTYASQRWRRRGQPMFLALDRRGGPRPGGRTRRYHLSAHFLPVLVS
HNF4A DNA FP: change in binding of human HNF4 alpha to DNA; hit rate 0.3% among 360,000; AID 1224865; P41235; HNF4a-FITC DNA binding, fluorescence polarization, 1 h; activity change, % at 10 µM; in the data active means activity change above about 30%, passing the limit was not always enough;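 further: controls were the assay level and a saturating level of protein; the project sought stronger binding though the title names inhibitors; some compounds called inactive have numbers as strong as hits; positive values seem to mean higher polarization but the record does not say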
Ecoli growth: blocks Escherichia coli growth. OD600, 23 h; active compounds read low. OD600 absorbance (test concentration not listed). hit rate 0.21% among 330,000;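 active means OD600 absorbance below the run mean of sample wells minus 3.6 SD, in any replicate, cut at about 0.56 in these data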;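 further: stock transfer was 300 nL into about 60 µL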
rRNA inh HTS: selective bacterial rRNA inhibition in E. coli; E. coli WT GFP vs humanized-ribosome RFP mutants, fluorescence, 24 h; active compounds read low; DMSO median 0, no signal -100; GFP signal change (wild-type ribosome), % (test concentration not listed); hit rate 1.6% among 350,000;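 active means significant combined selectivity score with lowered wild-type GFP, culture density cut under 30%, mutant RFP and density less affected; inactive means any of these conditions unmet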; further: one replicate is shown; some compounds called inactive have numbers as strong as hits
MLL AF4-AF9 inh: inhibitors of human MLL-AF4/AF9 interaction; AlphaScreen, biotin-AF4 peptide binding to FLAG-AF9; inhibition, % at 10 µM; hit rate 0.47% among 350,000;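 active means every replicate reaching a set inhibition limit, whatever the replicate mean, cut at about 25% in these data; inconclusive means mean inhibition reaches that limit but some replicates miss it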;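 further: 0% = plate neutral control median and 100% = total signal loss; the record names both 10 and 1 µM as test concentration; the first replicate is given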
Target sequence (P42568 whole entry, looked up): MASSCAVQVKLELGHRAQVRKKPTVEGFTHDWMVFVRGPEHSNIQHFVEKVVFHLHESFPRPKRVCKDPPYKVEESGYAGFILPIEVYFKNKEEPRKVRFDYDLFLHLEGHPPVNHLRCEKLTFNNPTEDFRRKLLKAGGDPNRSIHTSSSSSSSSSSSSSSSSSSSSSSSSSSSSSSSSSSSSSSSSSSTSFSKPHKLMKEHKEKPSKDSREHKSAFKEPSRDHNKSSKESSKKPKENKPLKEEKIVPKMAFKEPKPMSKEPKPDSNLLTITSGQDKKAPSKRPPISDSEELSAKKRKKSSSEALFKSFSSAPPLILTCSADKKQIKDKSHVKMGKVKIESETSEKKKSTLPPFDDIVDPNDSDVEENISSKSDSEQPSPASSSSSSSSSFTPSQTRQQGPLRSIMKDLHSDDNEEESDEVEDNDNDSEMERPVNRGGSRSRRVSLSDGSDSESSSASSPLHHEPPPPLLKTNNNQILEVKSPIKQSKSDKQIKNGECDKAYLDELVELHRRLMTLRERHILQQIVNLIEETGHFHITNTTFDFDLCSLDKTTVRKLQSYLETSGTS
ALR inh: inhibitors of human sulfhydryl oxidase ALR; purified ALR, DTT oxidation, H2O2 HRP-luminol luminescence; inhibition, % (no concentration beside the values); AID 485317; hit rate 3.8% among 290,000; P55789;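 active means mean and each replicate at 75% or more; inconclusive means only one of the two met; inactive means neither met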;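 further: stock transfer was 7.5 nL into about 7.5 µL; 0% = neutral wells and 100% = wells with inactivated enzyme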
Target sequence (P55789 whole entry, looked up): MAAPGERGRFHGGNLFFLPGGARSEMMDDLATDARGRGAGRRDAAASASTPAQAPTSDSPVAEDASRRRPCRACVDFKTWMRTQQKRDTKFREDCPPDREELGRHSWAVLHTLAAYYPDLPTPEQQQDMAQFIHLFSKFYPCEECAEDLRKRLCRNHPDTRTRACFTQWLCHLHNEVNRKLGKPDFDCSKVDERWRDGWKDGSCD
Vif TR-FRET: HIV-1 Vif–A3G interaction blockers – biochemical, TR-FRET, GST-Vif 1-94, biotin-A3G peptide, dose response retest, primary screen (AID 1117319); TR-FRET GST-Vif / biotin-A3G peptide binding; higher % means a stronger effect; test concentration not given here; strong numbers were not always called active; hit rate 0.57% among 260,000; one-dose inhibition, %; IC50 in µM for titrated hits;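 active means above the screen mean plus three standard deviations and confirmed in dose response; inconclusive means results disagree or hit not tested in dose response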;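 further: Vif residues 1-94 fused to GST binding biotinylated APOBEC3G peptide 110-148; 0% = full assay without inhibitor and 100% = GST in place of GST-Vif; retest series ran down from 100 µM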
rRNA inh HTS OD600: also measured in rRNA inh HTS; calls as there; OD600 change, %; measured here: OD600 growth;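 optical density of the mix in the first replicate; 0 = DMSO median and -100 = no signal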
rRNA inh HTS RFP: also measured in rRNA inh HTS; calls as there; RFP signal change, %; measured here: RFP humanized mutant strains;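 first replicate; 0 = DMSO median and -100 = no signal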
* marks the source's active call; other numbers are inactive results; i = inactive; ? = inconclusive; . = not tested or not shown. These rows are one share of the data; rates above refer to the full screens.

A first look:
Molecule	FGF22 binding	HNF4A DNA FP	Ecoli growth	rRNA inh HTS	rRNA inh HTS OD600	rRNA inh HTS RFP	MLL AF4-AF9 inh	ALR inh	Vif TR-FRET
CC(Sc1nnc(Cc2ccccc2)o1)C(=O)NC1(C#N)CCCCC1 (stereo not drawn)	i	-2.5	0.67	-2	-1	-4.5	-2.7	-8	.
O=C(C=Cc1ccccc1)CC(c1ccccc1)N1CCOCC1 (stereo not drawn)	i	-1.6	0.63	-30	-37	-5.2	2.3	.	7%
C=CCOc1ccc(CNc2ccc(NC(=O)CCC)cc2)cc1OCC	.	1.3	0.7	.	.	.	.	24	27%
COc1ccccc1CN1CCC(CNS(=O)(=O)c2cc(-c3cc(C)no3)ccc2C)CC1	i	-0.7	0.72	1	-1	8.1	7.3	-3	.
COc1ccc(-c2nc3ccccc3nc2-c2ccc(OC)cc2)cc1	i	3.9	0.71	-5	-3	3.2	-4.5	-3	.
COc1ccc(-n2ncc3c(SCC(=O)NNC(C)=O)ncnc32)cc1	i	4.2	0.64	2	-1	-2.1	6.3	-1	.
CCC(COC)NCc1cn(-c2ccc(F)cc2F)nc1-c1ccccc1C (stereo not drawn)	i	-1.3	0.68	3	-6	0.5	0.6	.	6%
COc1ccc(N2CCN(C(=O)c3ccc(Br)o3)CC2)cc1	i	-3.0	0.63	3	-15	-1.2	-18	84*	.
CCC(=O)Nc1ccc2c(c1)OC[C@H](C)N(Cc1cncnc1)C[C@@H](C)[C@H](OC)CN(C)C2=O	i	.	.	1	-9	-4.0	-0.7	.	.

The whole of this part, from the first entry:
Molecule	FGF22 binding	HNF4A DNA FP	Ecoli growth	rRNA inh HTS	rRNA inh HTS OD600	rRNA inh HTS RFP	MLL AF4-AF9 inh	ALR inh	Vif TR-FRET
CC(Sc1nnc(Cc2ccccc2)o1)C(=O)NC1(C#N)CCCCC1 (stereo not drawn)	i	-2.5	0.67	-2	-1	-4.5	-2.7	-8	.
O=C(C=Cc1ccccc1)CC(c1ccccc1)N1CCOCC1 (stereo not drawn)	i	-1.6	0.63	-30	-37	-5.2	2.3	.	7%
C=CCOc1ccc(CNc2ccc(NC(=O)CCC)cc2)cc1OCC	.	1.3	0.7	.	.	.	.	24	27%
COc1ccccc1CN1CCC(CNS(=O)(=O)c2cc(-c3cc(C)no3)ccc2C)CC1	i	-0.7	0.72	1	-1	8.1	7.3	-3	.
COc1ccc(-c2nc3ccccc3nc2-c2ccc(OC)cc2)cc1	i	3.9	0.71	-5	-3	3.2	-4.5	-3	.
COc1ccc(-n2ncc3c(SCC(=O)NNC(C)=O)ncnc32)cc1	i	4.2	0.64	2	-1	-2.1	6.3	-1	.
CCC(COC)NCc1cn(-c2ccc(F)cc2F)nc1-c1ccccc1C (stereo not drawn)	i	-1.3	0.68	3	-6	0.5	0.6	.	6%
COc1ccc(N2CCN(C(=O)c3ccc(Br)o3)CC2)cc1	i	-3.0	0.63	3	-15	-1.2	-18	84*	.
CCC(=O)Nc1ccc2c(c1)OC[C@H](C)N(Cc1cncnc1)C[C@@H](C)[C@H](OC)CN(C)C2=O	i	.	.	1	-9	-4.0	-0.7	.	.
O=C(CCNS(=O)(=O)c1ccccc1F)N1CCN(S(=O)(=O)c2cccc(F)c2)CC1	i	-1.4	0.65	5	3	-1.3	0.3	1	-1%
O=C(Nc1ccc(Br)cn1)c1ccc2nccnc2c1	.	2.1	0.75	.	.	.	.	-20	-182%
COc1ccc(CCNCCN2CCOCC2)cc1	i	1.6	0.68	4	7	-3.5	2.9	-4	-5%
CC(=O)c1ccc(NC(=O)CSc2nnc3ccc(-c4ccccn4)nn23)cc1	i	-0.6	0.61	6	8	-0.9	-0.5	-11	-2%
C=CCn1c(=O)c2ccccc2n2c(SCc3nc(N)nc(Nc4ccccc4C)n3)nnc12	i	0.3	0.69	14	2	-1.1	2.3	2	8%
N#CCn1c(CN2CCCC2)nc2ccccc2c1=O	i	-2.0	0.66	14	13	1.2	1.4	-4	.
COc1ccc(CCNC(=O)/C=C/c2ccc(C)cc2)cc1OC	.	1.7	0.69	.	.	.	.	-4	-7%
CC(=O)Nc1cc2nc(C)n(Cc3ccccc3[N+](=O)[O-])c2nc1C	i	18	0.68	7	15	16	-1.1	-5	.
Cc1cc(/C=C2/NC(=O)NC2=O)c(C)n1-c1ccc(C#N)cc1	i	1.1	0.7	24	11	4.9	2.4	-5	19%
O=C(O)CSC1CC(=O)N(c2ccc(Cl)cc2)C1=O (stereo not drawn)	.	0.9	0.69	.	.	.	.	0	-7%
COc1ccc(Cl)cc1N1C(=O)C2CCCN2C1c1ccccc1F (stereo not drawn)	i	0.4	0.73	-1	-5	-0.1	-0.5	-12	-4%
COc1ccccc1C#Cc1ccc2c(c1)O[C@H](CN(C)Cc1cccnc1)[C@H](C)CN([C@H](C)CO)S2(=O)=O	i	.	.	-3	-14	6.6	6.3	.	.
COc1ccc(C(CNC(=O)c2oc3ccc(Br)cc3c2C)N2CCCCC2)cc1 (stereo not drawn)	i	2.7	0.71	-19	-3	40	9.7	0	-7%
COC(=O)[C@]1(C)N[C@H](CN(C)C(=O)c2ccc(C(C)(C)C)cc2)[C@@H]2C(=O)N(C)C(=O)[C@@H]21	i	-2.3	0.7	2	3	-5.8	-0.3	.	9%
Cc1cccc(N2CCN(C(=O)c3cc(=O)[nH]c4ccccc34)CC2)c1C	i	-3.6	0.7	-22	-26	-1.3	0.3	3	14%
COc1ccc(S(=O)(=O)N2CCOCC2)cc1NC(=O)c1ccccc1-c1ccc(C(F)(F)F)cc1	.	0.1	0.74	.	.	.	.	-5	-4%
CC(=O)c1ccc(Nc2c([N+](=O)[O-])ccc3nonc23)cc1	i	-2.4	0.64	9	9	0.6	-3.3	-32	2%
CCN(CC)C(=O)c1cc(S(=O)(=O)N2CCCCC2)c[nH]1	i	1.6	0.75	1	5	-1.4	-1.1	-6	.
Cn1c(-[n+]2c(-c3ccccc3)cc(-c3ccccc3)cc2-c2ccccc2)nc2c([N+](=O)[O-])cccc21	i	1.0	0.7	-22*	-9.9*	-7.7*	6.5	-8	-5%
O=C(CCN1CCN(CC(=O)Nc2ccccc2Cl)CC1)Nc1ccccc1F	.	-0.8	0.66	.	.	.	.	-4	10%
COc1ccc(N2CCSC2C(=O)NN)cc1 (stereo not drawn)	.	-0.7	0.7	.	.	.	.	25	19%
CCc1noc(C)c1C(=O)OCC(=O)Nc1ncc(Cl)cc1Cl	i	1.0	.	14	14	1.2	-2.9	-15	-4%
Cc1cc(NC(=O)c2cccc(S(=O)(=O)N3CCOCC3)c2)no1	.	3.2	0.66	.	.	.	.	-14	14%
CCOC(=O)C1=NNC(C(=O)OCC)C1c1ccccc1 (stereo not drawn)	i	-5.3	.	3	-1	-0.8	-1.6	.	-5%
CC(C)(C)c1ccc(C(=O)NC(=S)NCC2CCCO2)cc1 (stereo not drawn)	i	0.2	0.64	-23	-59	-7.7	0.6	45	.
Cc1ccc(-n2nc(CC#N)c(C#N)c2N)cc1Cl	.	8.2	0.66	.	.	.	.	1	13%
C[C@@H]1CN([C@H](C)CO)S(=O)(=O)c2ccc(C#CC3CCCC3)cc2O[C@H]1CN(C)C(=O)C1CC1	i	.	.	-22	-49	29	-12	.	.
CCOC(=O)N1CCN(C(=O)C2CCN(S(=O)(=O)c3ccc(C)cc3)CC2)CC1	.	1.7	0.72	.	.	.	.	3	2%
C[C@H](CO)N1C[C@H](C)[C@@H](CN(C)Cc2ccc(C(=O)O)cc2)Oc2ccc(NC(=O)NC3CCCCC3)cc2C1=O	i	.	.	-2	5	-2.2	-2.3	.	.
C[C@@H]1CCCCO[C@@H](CN(C)Cc2ccc3c(c2)OCO3)[C@H](C)CN([C@@H](C)CO)C(=O)c2cc(NC(=O)c3ccccc3)ccc2O1	i	.	.	-2	-7	0.2	3.9	.	.
Cc1ccc(CN2CC(C(=O)Nc3ccncc3)CC2=O)cc1 (stereo not drawn)	i	-1.8	0.74	22	19	3.8	0.9	-3	-7%
CC(C)Cn1c(=O)c2ccccc2n2c(CCC(=O)O)nnc12	i	-2.2	0.66	5	4	0.0	-1.4	.	4%
COC(=O)[C@@]1(Cc2ccc(F)cc2)[C@H]2c3cc(C(=O)N(C)C)n(CCSCCO)c3C[C@H]2CN1C(=O)c1ccccc1	i	.	.	-2	2	0.1	-7.3	.	22%
CC(C)C#Cc1ccc([C@@H]2[C@H](CO)N3C(=O)CN(C(=O)NC4CCCC4)C[C@@H]23)cc1	i	.	.	-1	18	0.8	-0.9	.	.
Cc1cn([C@H]2C[C@H](O)[C@@H](CCC(=O)NCc3ccc4c(c3)OCO4)O2)c(=O)[nH]c1=O	i	0.3	.	.	.	.	-4.2	.	.
c1ccc(-c2ccc3c(n2)CCCN3Cc2ccccn2)cc1	i	.	.	0	-12	8.9	11	.	.
CC1(C)OC(=O)C(=Cc2ccc(-c3ccc(S(N)(=O)=O)cc3)o2)C(=O)O1	i	10	0.73	18	17	-0.9	-1.3	?	-10%
Cc1ccc2oc(=O)c(/C=C(\O)c3ccccc3)nc2c1	i	-1.9	0.72	-10	-5	2.8	-5.8	98*	-3%
CCC(C)(C)n1nnnc1C(c1ccccc1)N1CCN(C2CCCC2)CC1 (stereo not drawn)	.	-1.8	0.7	.	.	.	.	-13	-9%
CCCCN1C(=O)c2ccc(C(=O)Nc3ccc(C)c(S(=O)(=O)N(C)C)c3)cc2C1=O	.	4.0	0.63	.	.	.	.	-5	13%
CCNC(=O)C1CCCN(C(=O)C(c2ccccc2)c2ccccc2)CC1 (stereo not drawn)	i	0.1	.	6	21	0.8	-3.5	.	.
Cc1ccc(S(=O)(=O)N2CCCCC2)cc1NC(=O)CCCOc1ccccc1	i	-2.5	0.71	5	1	5.1	-0.3	.	-5%
Cc1ccc(-c2ccc([C@H]3[C@@H](CO)N4C(=O)CN(C(=O)c5cccnc5)C[C@H]34)cc2)cc1	i	.	.	-1	5	-0.8	-11	.	.

Screens (PubChem)
